Assay outcomes deposited in PubChem BioAssay by several laboratories.
Bead autofluor: flagged as autofluorescent in microsphere protease counterscreen. 360,000 tested, 3.1% active. compound autofluorescence counterscreen, microsphere flow cytometry; stronger effect = higher value. fluorescence intensity (no concentration beside the values);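 active = at least 3 SD above the mean of all compounds, about 16000 in these data; inconclusive = too few beads counted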;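 note: 100 nL of 1 mM stock went into each well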
Sa RN4220 lethal: kills Staphylococcus aureus RN4220; inhibition, % (test concentration not listed); 330,000 tested, 0.33% active; AID 1259311; S. aureus RN4220 growth, OD600, 16 h;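 active = z-score of -3 or lower and OD600 up to 0.18 on both plates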;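 note: plate controls were untreated cells for no effect and reference antibiotic for full effect; stock transfer was 100 nL into about 80 µL; one replicate is shown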
PrP UTR inh: suppresses PrP 5' UTR mRNA reporter expression | cell-based PrP 5' UTR mRNA reporter, plate reader | inhibition, % (concentration not given with the values) | 340,000 tested, 0.35% active;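 active = every replicate at 50% or more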;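 note: 0 = median of the neutral control wells; tested in H4 reporter cells; numbers are from one replicate; inactives centre near -14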
BJeLR viability: BJeLR cell viability loss; inhibition, % (concentration not given with the values); 300,000 tested, 0.17% active; BJeLR (HRASV12) viability, CellTiter-Glo ATP luminescence, 48 h; reference of the scale not given here; AID 1554;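 active = replicate mean above 50%; inconclusive = above 50% but judged a plate artefact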;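 note: 50 nL library stock added to about 25 µL; numbers are from one replicate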
Sa ugtP lethal: growth inhibition of S. aureus ugtP deletion strain; S. aureus RN4220 ugtP deletion, OD600 growth, 16 h; some inactives read as strong as hits; growth inhibition, % (concentration not given with the values); 330,000 tested, 0.54% active; AID 1259309;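 active = z-score under -3 and OD600 up to 0.15 on both plates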;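 note: plate controls were untreated wells for no effect and antibiotic for full effect; wells of about 80 µL received 100 nL stock; the first replicate is given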
Mtb hypoxia rep: Mtb hypoxia fluorescent reporter inhibition; M. tuberculosis hypoxia-regulated fluorescent reporter, fluorescence; fluorescence inhibition, % (no concentration beside the values); 300,000 tested, 0.1% active; AID 1159583;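 active = 35 to 45% if threefold the growth effect, above 45% if 1.5-fold the growth effect; inactive = the rest, general growth blockers included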;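 note: wells of about 50 µL received 100 nL stock; 0% = vehicle wells and 100% = reference inhibitor wells; whole bacteria with a GFP reporter of the hypoxia response; strong numbers were not always called active; many hits fall short of the cut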
Mtb hypoxia rep growth: recorded beside Mtb hypoxia rep, whose call it bears; growth inhibition, %; measured here: M. tuberculosis growth (absorbance);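 0% = vehicle and 100% = reference antibiotic; read after six days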
* hit, by the source's call; ? = inconclusive; . = not tested or not shown.

SMILES	Bead autofluor	Sa RN4220 lethal	PrP UTR inh	BJeLR viability	Sa ugtP lethal	Mtb hypoxia rep	Mtb hypoxia rep growth
N#Cc1c(-c2ccco2)cc(C2CC2)nc1N	9828	2.8	4	0	-6	2	8
COc1ccc(C(=O)NCc2cnn(C)c2C)cc1OC1CCN(C(C)C)CC1	5443	4.7	-16	-5	2	3	-1
COCCCNC(=O)c1ccc(N2CCOCC2)c(NS(=O)(=O)c2ccc(OC)cc2)c1	6162	5.5	-18	9	-2	-4	11
Nc1nc(SCc2ccc(Br)cc2)c2ncn(C3OC(CO)C(O)C3O)c2n1 (centres undefined)	3419	3.3	10	.	0	15	7
CCCOc1ccc(S(=O)(=O)NNC(=O)c2cc3ccccc3o2)cc1	2524	4.4	-21	-6	2	-3	-7
COC(=O)C1=C(CS(=O)(=O)c2ccc(C)cc2)NC(=O)NC1c1ccc(OC)c(OC)c1 (centres undefined)	3961	4.0	-15	5	11	-7	-5
Cc1ccc(-n2c(SCc3nnc4n3CCC4)nnc2-c2ccccc2)cc1	4021	-0.6	-5	2	4	10	12
CC(C)n1c(N2CCCC2)nc2c1c(=O)[nH]c(=O)n2C	3676	1.1	-10	8	-3	-2	-4
Cc1cc(N2CCOCC2)ccc1/C=C1\SC(=O)N(C(C)C)C1=O	3856	7.0	-107	1	-4	7	10
Cc1cc(Nc2ccccc2)n(CCOC(=O)COc2ccccc2)n1	2535	4.7	-3	-5	-8	5	1
Clc1ccccc1OCCCOc1cccc2cccnc12	3585	-0.5	-5	-5	4	7	3
O=C(O)CN(c1ccc(F)cc1)S(=O)(=O)c1ccc2c(c1)OCCO2	11699	7.2	-18	1	12	15	-1
Cn1ncc2c(N3CCN(c4ccccc4F)CC3)ncnc21	16585*	6.9	0	16	10	10	5
Nc1c(C(=O)CSc2nccn2-c2cccc(F)c2)c(=O)[nH]c(=O)n1C1CC1	3785	4.8	-18	.	3	4	-5
CCC1CCc2c(sc(N)c2C(N)=O)C1 (centres undefined)	9918	5.0	-22	-1	-4	10	10
COc1ccc(OCCSc2nc3ccccc3n2CC(=O)O)cc1	10793	3.8	-9	-6	1	5	14
O=C(NNS(=O)(=O)c1ccccc1F)c1cccc(S(=O)(=O)N2CCOCC2)c1	7554	9.8	-9	5	-1	2	4
S=C(Nc1ccccc1)Nc1nc2ccccc2n1CCOc1ccc(Cl)cc1	2555	12	-17	-1	2	8	2
CC(C)c1ccc(NC(=O)c2cccnc2)cc1	9193	-1.3	-114	-4	-2	-9	-1
CCOc1ccc(-c2cc(N3C(=O)Nc4ccccc4N3O)n[nH]2)cc1	2461	5.9	5	5	80	10	-5
CCOC(=O)c1ccc(NC(=S)N(CCCN(CC)CC)Cc2ccco2)cc1	7459	1.2	-2	2	2	6	16
CC(C)Cn1c(N)c(C(=O)COC(=O)[C@H](C)NC(=O)c2ccccc2Cl)c(=O)n(C)c1=O	?	1.0	-15	1	9	-7	-1
COC(CNC(=O)c1ccc(Cn2c(=S)[nH]c3cc4c(cc3c2=O)OCO4)cc1)OC	6183	1.6	-22	2	-4	-9	16
CNCCC1Sc2ccccc2Oc2ccccc21 (centres undefined)	5085	5.9	6	-4	-1	8	4
CCCCCCC(=O)N1CC=CC(c2ccc(OC)cc2)N(Cc2ccc(F)cc2)C(=O)C1Cc1ccccc1 (centres undefined)	.	4.1	.	.	4	20	6
COc1ccc(NC(=O)CSc2nnc3n2CCCCC3)cc1	4159	1.0	-5	-14	2	2	2
COCCN(Cc1cc2cc(C)ccc2n2nnnc12)C(=S)Nc1cccc(C)c1	4225	4.2	-12	-2	2	-2	6
COc1ccc(NC(=O)COC(=O)CCCC2=NS(=O)(=O)c3ccccc3N2)cc1	5444	2.1	-6	-15	2	-2	7
CCOC(=O)c1c(-c2ccccc2)csc1N=CC1C(=O)CCCC1=O	.	6.7	.	.	8	18	4
N#Cc1cccc(NC(=O)C2SC(=Nc3ccccc3)C(C(=O)N3CCOCC3)=C2N)c1 (centres undefined)	2402	1.6	-11	-9	1	9	14
COc1ccc(C=NNC(=O)c2ccncc2)cc1Cn1nc([N+](=O)[O-])c(Br)c1C	.	7.9	.	.	0	.	.
NC1=NC[C@@H](CC2CCCCC2)N1CCc1cc(C(F)(F)F)cc(C(F)(F)F)c1	3172	100*	-13	.	100*	.	.
COCCN(CCOC)S(=O)(=O)c1ccc(C(=O)Nc2ccncc2)cc1	3548	3.5	-11	1	14	1	8
Cc1ccc(-c2csc3ncn(C(C)C(=O)O)c(=O)c23)cc1 (centres undefined)	3895	4.9	-28	-8	5	1	5
O=C(COC(=O)c1ccc(Br)o1)Nc1ccc(Br)cc1	8951	3.1	-12	.	4	2	10
CCCCNC(=O)C(=O)NCC1CCCN1S(=O)(=O)c1cccs1 (centres undefined)	6753	5.3	-17	1	8	3	5
Cc1cc(C=Nn2c(COc3ccccc3)nc3ccccc3c2=O)c(O)c([N+](=O)[O-])c1	.	17	.	.	9	2	3
CCCCc1nc(NCCN)c(C#N)c2c1CSC(C)(C)C2	2741	-1.5	-5	2	-8	.	.
Cn1nc(C(=O)Oc2cc(=O)n(C)c3ccccc23)c2ccccc2c1=O	4334	3.2	-33	-6	2	1	4
Cn1c(C(=O)NCCc2ccsc2)cc2c(=O)n(C)c3ccccc3c21	4522	5.5	-10	3	-5	.	.
COc1cccc(NC(=O)CC2COc3ccccc3O2)c1 (centres undefined)	4418	0.9	-8	3	5	16	6
C=CCN1CCc2nc(N)sc2CC1	3794	5.8	-26	.	-10	2	0
COc1ccc(Cl)cc1NC(=O)CN(C)C(=O)c1ccc(N2CCCCCC2)c([N+](=O)[O-])c1	?	-2.0	-1	-5	-3	2	1
COCC(=O)N1CCC(Oc2ccc(C(=O)NCCc3ccncc3)cc2)CC1	3268	0.7	-26	-8	-3	-6	1
CCOc1cc(C)c(S(=O)(=O)NCc2ccccn2)cc1C	3701	3.6	-25	-12	13	14	9
CCn1c(=O)c2c(nc(SCC(=O)NC3CCCC3)n2C)n(C)c1=O	5735	1.8	-14	-2	-2	12	8
S=c1[nH]nc(-c2ccc(Cl)cc2Cl)n1-c1ccc2c(c1)OCCO2	.	7.2	-15	-10	9	10	11
O=S(=O)(c1ccc(F)cc1)N1CCN(c2ccccn2)CC1	4180	-1.0	-10	-5	2	2	-21
Cc1cccc(C(=O)NC2CCCCCCC2)c1	3166	2.6	-43	-5	1	.	.
O=C1C2CCCCN2C(=O)N1CCCCN1CCN(c2ccc([N+](=O)[O-])cc2)CC1 (centres undefined)	3034	-11	6	1	-10	12	11
COC(=O)c1ccc(Cn2ccc(=O)[nH]c2=O)cc1	4170	-0.2	-14	.	-2	4	7
CC(C)C(=O)Nc1cccc(NC(=O)c2cc3ccccc3o2)c1	8695	0.3	-69	-2	-8	-3	0
COc1ccc(C2CC2C(C)=O)cc1 (centres undefined)	4286	5.5	-20	2	1	11	-1
CC(=O)Nc1ccccc1OCC(=O)c1ccc2c(c1)OCO2	10389	4.8	-55	12	-9	1	1
CC(NC(=O)c1noc2c1CCCC2)c1ccccc1 (centres undefined)	11398	-1.0	-27	9	-1	-3	7
COc1ccc(NC(=O)CN(CC(=O)Nc2ccc(OC)cc2)C(C)(C)CO)cc1	3344	5.0	-19	3	6	-9	6
CNC(=O)c1c(NC(=O)c2cc(-c3cc(C)c(C)cc3O)n[nH]2)sc2c1CCCC2	.	2.0	.	6	3	11	2
CC(O)CNc1nc2ccccc2n1CC(=O)NCC(F)(F)F (centres undefined)	4457	6.4	-25	-4	-65	10	8
COc1cccc(C=NNC(=O)c2ccc(N(C)S(=O)(=O)c3ccccc3)cc2)c1OC	.	4.3	.	.	8	-8	-1
Cc1cc(C)c2c(NC(=S)Nc3ccccc3)n[nH]c2n1	4441	5.0	-15	-4	1	4	-2
(cont.)
SMILES	Bead autofluor	Sa RN4220 lethal	PrP UTR inh	BJeLR viability	Sa ugtP lethal	Mtb hypoxia rep	Mtb hypoxia rep growth
O=C(NN=C/C=C/c1ccc(Br)cc1)c1ccc2c(c1)OCO2	.	6.9	.	.	14	-5	-1
NC(=O)CC(NC(=O)c1ccccc1)c1ccc(NCC2CC2)c([N+](=O)[O-])c1 (centres undefined)	4344	3.1	-16	3	-2	17	10
CCc1ccccc1NC(=O)CC1S/C(=N\c2nccs2)N(CC)C1=O (centres undefined)	17187*	.	-6	-10	.	.	.
Cc1ccc(/C=N/n2nnnc2N)cc1[N+](=O)[O-]	6381	.	-26	-2	.	.	.
O=C(CN(Cc1ccc(F)cc1)C(=O)CCC(=O)Nc1ccccn1)NCc1ccco1	4278	3.9	-14	0	-11	.	.
CC(=O)Nc1ccc(S(=O)(=O)NCC(=O)N2CCN(S(=O)(=O)c3cccs3)CC2)cc1	6375	6.2	1	.	11	-1	-8
O=C(COC(=O)/C=C/c1ccc(Cl)cc1)Nc1ccccc1	4027	-0.5	-12	10	-1	-1	0
CC(=O)NC(CCS(C)(=O)=O)C(=O)Nc1ccc(Cl)c(Cl)c1 (centres undefined)	6116	-11	31	-4	-7	6	10
CC(C)Oc1ccc(C(=O)Nc2ccc(N3CCCCC3)cc2)cc1	2163	3.2	-11	8	-3	-4	11
COC(=O)c1ccc(-c2nc(O)c3cnccn23)cc1	2785	0.4	-3	0	0	.	.
CCCS(=O)(=O)C/C(N)=N/OC(=O)c1ccc(Cl)cc1	3424	5.7	-11	-12	2	14	14
O=[N+]([O-])c1ccc(O)c(/C=N/Nc2ccc(Cl)nn2)c1	2951	.	30	26	.	.	.
COc1ccccc1NC(=O)C(=O)NCC(c1ccco1)N1CCc2ccccc2C1 (centres undefined)	?	-6.6	-13	19	21	10	4
Cc1ccc2sc(N(CCCN(C)C)C(=O)c3ccc(Br)s3)nc2c1C	3516	-1.5	-4	-5	14	15	26
O=[N+]([O-])c1cccc(S(=O)(=O)Nc2ccc(S(=O)(=O)Nc3nccs3)cc2)c1	5821	6.2	-13	-8	8	16	9

Not a retest: 5 of the compounds above.
SMILES	Bead autofluor	Sa RN4220 lethal	PrP UTR inh	BJeLR viability	Sa ugtP lethal	Mtb hypoxia rep	Mtb hypoxia rep growth
Cc1ccc(/C=N/n2nnnc2N)cc1[N+](=O)[O-]	6381	.	-26	-2	.	.	.
O=C(CN(Cc1ccc(F)cc1)C(=O)CCC(=O)Nc1ccccn1)NCc1ccco1	4278	3.9	-14	0	-11	.	.
CC(=O)Nc1ccc(S(=O)(=O)NCC(=O)N2CCN(S(=O)(=O)c3cccs3)CC2)cc1	6375	6.2	1	.	11	-1	-8
O=C(COC(=O)/C=C/c1ccc(Cl)cc1)Nc1ccccc1	4027	-0.5	-12	10	-1	-1	0
CC(=O)NC(CCS(C)(=O)=O)C(=O)Nc1ccc(Cl)c(Cl)c1 (centres undefined)	6116	-11	31	-4	-7	6	10

(next part)
SMILES	Bead autofluor	Sa RN4220 lethal	PrP UTR inh	BJeLR viability	Sa ugtP lethal	Mtb hypoxia rep	Mtb hypoxia rep growth
COc1ccc(C(=O)C2CCCN(Cc3ccc(C#CCCO)cc3)C2)c(OC)c1 (centres undefined)	4321	0.7	-18	1	14	12	-1
CCCCN1C(=O)/C(=C/C=C2/CC(C)(C)CN2C)SC1=S	5295	0.6	-35	-20	9	24	12
O=C(CCC1CCCN(C(=O)Cn2cnnn2)C1)NCc1ccc(F)c(F)c1 (centres undefined)	4500	0.7	2	2	4	10	1
CCOc1cc(C2C(C(=O)O)c3cc(OCC)c(OCC)cc3C(=O)N2C)ccc1O (centres undefined)	4075	3.0	-3	1	16	.	.
Brc1ccccc1	5150	6.0	-17	-4	-9	.	.
CC(=O)Nc1ccc(NC(=O)CN2C(=O)NC3(CCCCCCC3)C2=O)cc1	3619	1.0	-19	.	2	1	8
Cc1nc(N2CCOCC2)c2c3c(sc2n1)CCC3	4463	3.8	5	0	3	1	11
Cc1nc2ccc(NC(=O)c3ccc(N4C(=O)CCC4=O)cc3)cc2s1	4535	8.1	-29	-21	-66	1	7
CCCCN(C(=O)NC(=O)Nc1c(C)cc(C)cc1C)S(C)(=O)=O	12263	1.5	6	-2	8	-2	4
COc1cc2c3c(c1OC)Oc1ccc(cc1)CC1c4c(cc(OC)c(OC)c4Oc4ccc(cc4)CC3N(C)CC2)CCN1C (centres undefined)	.	3.8	.	.	-5	-1	0
